Compound activity from PubChem.
NPYLR7 ag: mosquito NPYLR7 agonism; HEK293T NPYLR7/Galpha15, GCaMP6s calcium fluorescence; activation, % at 10 µM; 0.15% of 270,000 active; in the data active means activation above about 40%;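 further: 0% = vehicle and 100% = reference agonist at the receptor; some compounds past the cut are filed as inactive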
NPYLR7 ag max-min: further read-out of NPYLR7 ag, marked with its call; activation, %; measured here: Max-Min RFU normalised activation; some inactives read as strong as hits;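 span of the calcium signal over five minutes; 0% = vehicle and 100% = native peptide agonist; compound fluorescence can raise it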
Active calls of the source: *. This is a subset. The share of hits here may be higher or lower than overall.

SMILES	NPYLR7 ag	NPYLR7 ag max-min
Cc1n[nH]c(C)c1N=Nc1ccc(Br)cc1	5	2
CCn1cnnc1CCNC(=O)c1cccc2ccnn12	23	8
Cc1ccc(C(C2Sc3ncnn3C2=O)N2CCN(C)CC2)cc1 (stereo not given)	4	5
Cc1ccc(S(=O)(=O)/C(C#N)=C/N2CCN(c3ccccc3)CC2)cc1C	-2	-3
CC(NCc1cnc(C2CCC2)s1)c1ccc(-n2cccn2)cc1 (stereo not given)	2	3
CN(CC(=O)N1CCCc2cc(F)cc(F)c21)C1=NS(=O)(=O)c2ccccc21	-17	-16
COc1cc2c(cc1CN(C)C(C)c1ccncc1)OCO2 (stereo not given)	4	1
O=c1c2nnc3c(-c4ccc(Cl)cc4)cnn3c2ccn1CCCO	20	15
CC(=O)N[C@H](C(=O)O)C(C)(C)SN=O	4	-31
CCOC(=O)c1c(N=Nc2c(O)[nH]c3ccccc23)sc(SC#N)c1-c1ccccc1	2	-3
Nc1cc(-c2ccc(Cl)c(Cl)c2)nn1-c1ccc(C(=O)NC23CC4CC(CC(C4)C2)C3)cc1	1	-3
CCCSc1ncccc1C(=O)Nc1cccc(C(F)(F)F)c1	-6	-10
O=C1OC(C[N+](=O)[O-])C(Br)=C1Oc1ccccc1 (stereo not given)	-2	-4
Cc1cc(-n2cccn2)ccc1-c1c(-c2ccccc2)ncn1Cc1ncc[nH]1	3	0
Cc1nc(-c2ccccc2)sc1C(=O)NCCCn1nc(-c2ccc(F)cc2)ccc1=O	-2	-3
O=S(=O)(c1ccccc1)N1CCN(Cc2cnc(-c3ccccn3)nc2)CC1	-5	-10
CCCC(C(=O)O)N1C(=O)/C(=C/c2ccc(O)c(OCC)c2)SC1=S (stereo not given)	20	15
CCCn1c(SCC(=O)c2cc(C)n(C(C)C)c2C)n[nH]c1=O	6	0
CCOC(=O)c1c(NC(=O)c2cc3nc(-c4ccc(F)cc4)cc(C(F)(F)F)n3n2)sc2c1CCCC2	-9	-17
CC(NC(=O)NC1CCN(S(C)(=O)=O)CC1)c1ccccc1Cl (stereo not given)	3	3
COc1cc(-c2c(NC(=O)CC(C)C)oc3c(C)cccc3c2=O)cc(OC)c1OC	6	1
O=C(CSc1ncnc2c1nnn2Cc1ccc(Cl)cc1)NCc1ccccc1Cl	1	14
C=CCCC(O)CN(Cc1nc2sc(C)c(C)c2c(=O)[nH]1)Cc1ccco1 (stereo not given)	12	15
CCn1c(-c2cccnc2)nc2cc(NC(=O)COC)cc(C(=O)N(C)Cc3ccc(C)cc3)c21	17	6
CC(=O)c1ccc(NC(=O)c2cn(-c3ccccc3)nc2-c2ccc([N+](=O)[O-])cc2)cc1	-7	-12
Cc1nc2ccc(NC(=O)NCC(c3cccs3)N(C)C)cc2s1 (stereo not given)	9	8
Cn1cccc1C1CCCN1CC(=O)NC1CCCc2ccccc21 (stereo not given)	-32	-31
CCc1nc2ccc(C(=O)NCCC(C)C)cn2c1N(CC)CCOC	-5	-7
COC(=O)c1cccc(NC(=O)C(C)C)c1C	5	4
COc1ccccc1-n1cc(C(=O)N2C[C@H]3C[C@H](O)[C@H](O)C[C@H]3C2)cn1	-4	-5
CC(C)(CC1CCOCC1)C(=O)O	25	13
Cc1ccc(C(C)C)c(OCC(=O)NCC(O)c2ccc(F)cc2F)c1 (stereo not given)	0	35
COc1ccc(C2CC(c3ccc(C)c(C)c3)=NN2C(=O)CN2CCc3ccccc3C2)c(OC)c1 (stereo not given)	0	7
Nc1cccc2ccc(Cl)nc12	-4	-2
CC(C)(C)c1cc(CN2CCc3[nH]cnc3C2Cc2ccccc2)[nH]n1 (stereo not given)	5	6
COc1ccc(C(O)=C2C(=O)C(=O)N(c3ccccn3)C2c2ccc([N+](=O)[O-])cc2)cc1 (stereo not given)	1	1
COc1cccc(C(=O)NN2C(=O)/C(=C/c3cccnc3)SC2=S)c1	2	-5
O=c1[nH]c(=S)[nH]c(O)c1C(c1ccncc1)c1c(O)[nH]c(=S)[nH]c1=O	1	45
CCc1[nH]nc2c1C(c1ccncc1Cl)CC(=O)N2 (stereo not given)	7	3
COc1c(C)cnc(CNC(=O)c2ccc(N(C)C)c(F)c2)c1C	4	2

Exported as labelled records: 3 of the compounds above
Compound: COc1ccc(C(O)=C2C(=O)C(=O)N(c3ccccn3)C2c2ccc([N+](=O)[O-])cc2)cc1 (stereo not given)
  NPYLR7 ag: 1
  NPYLR7 ag max-min: 1
Compound: COc1cccc(C(=O)NN2C(=O)/C(=C/c3cccnc3)SC2=S)c1
  NPYLR7 ag: 2
  NPYLR7 ag max-min: -5
Compound: COc1cc(-c2c(NC(=O)CC(C)C)oc3c(C)cccc3c2=O)cc(OC)c1OC
  NPYLR7 ag: 6
  NPYLR7 ag max-min: 1

(list continues)
SMILES	NPYLR7 ag	NPYLR7 ag max-min
Cc1ccc(S(=O)(=O)Nc2cccc(-c3ccc(N4CCCCCC4)nn3)c2)s1	0	-1
CC(C)N(C(C)C)C(C(=O)N1CCCN(C)CC1)c1ccccc1 (stereo not given)	6	3
COc1ccc(C2=N/C(=C\c3cccc(C(F)(F)F)c3)C(=O)O2)cc1OC	-4	-9
O=C(c1ccc(C(F)(F)F)cc1)N(Cc1ccccn1)CC1CCCO1 (stereo not given)	16	3
CC1(C(=O)Nc2cnc3ccccc3c2)CCN1Cc1ccc(-n2ccnc2)cc1 (stereo not given)	-8	-14
CCOc1ccc(C(=O)N2CCCC(c3nn(C)c(=O)n3CC)C2)o1 (stereo not given)	11	7
COc1ccc(-c2ccc(NC(=O)C3CC3)nc2)c2cccnc12	2	2
CN(Cc1ccc(F)cc1)C(=O)CN(C)S(=O)(=O)/C=C/c1ccccc1	8	1
CC(C)CN=C1N[C@H]2[C@H]3OC(=O)[C@H](C[C@H]3O)[C@H]2S1	-11	-18
CCC(Oc1ccc2c(c1)OCO2)C(=O)O (stereo not given)	-1	-1
O=C(CN1CCCN(C(=O)c2ccc(F)cc2)CC1)NC1CC1	2	1
COc1ccc(OC)c(N2C(=O)CSC2c2ccccc2NC(=O)Cc2ccccc2)c1 (stereo not given)	2	14
Cc1cn2c(nc3c2c(=O)n(Cc2ccccc2F)c(=O)n3C)[nH]1	1	3
Cn1cc(C(=O)N2CC(=O)Nc3ccccc3C2c2ccccc2)ccc1=O (stereo not given)	11	6
Cc1c(Cl)ccc(C(=O)O)c1N	0	-1
CCn1ccnc1CN(C)Cc1cn(-c2ccccc2)nc1-c1ccc(OC)cc1F	4	-3
COc1ccc(OCC2CN(C(=O)c3coc(C)c3)CCO2)cc1 (stereo not given)	28	26
Cc1[nH]cnc1CSCCn1cnc(-c2ccccc2)c1-c1cnn(C)c1	5	3
O=C(c1ccc([N+](=O)[O-])cc1)N1CCN(C(C(=O)N2CCc3ccccc3C2)C2CCCC2)CC1 (stereo not given)	-6	-6
CCOC(=O)C(=O)Nc1ccc(-c2cccc(-c3cc(OC)ccc3OC)n2)cc1	1	2

By substructure, those above containing a furan ring, fused or not.
SMILES	NPYLR7 ag	NPYLR7 ag max-min
C=CCCC(O)CN(Cc1nc2sc(C)c(C)c2c(=O)[nH]1)Cc1ccco1 (stereo not given)	12	15
CCOc1ccc(C(=O)N2CCCC(c3nn(C)c(=O)n3CC)C2)o1 (stereo not given)	11	7
COc1ccc(OCC2CN(C(=O)c3coc(C)c3)CCO2)cc1 (stereo not given)	28	26

Other compounds
SMILES	NPYLR7 ag	NPYLR7 ag max-min
CCn1c(C2CCN(Cc3cccc(C(=O)OC)n3)CC2)nn(C)c1=O	3	2
CSc1nc(COC(=O)c2c(NC(C)=O)sc(C)c2C)cc(=O)[nH]1	2	7
O=C(Cc1coc2ccccc2c1=O)c1nc2ccccc2s1	3	0
CC(C)C[C@@H](NC(=O)C1=C[C@@H](Oc2ccc3c(c2)CCC3)[C@H](O)[C@H](O)C1)C(N)=O	-8	-10
CC(=O)Nc1sc2c(c1-c1nc3ccccc3s1)CCN(Cc1ccccc1)C2	197*	196*
COc1ccc2c(c1)cc1n2CCN2CCCN=C12	1	-1
COc1cc(CNC2CCN(c3ccc(C(=O)NC(C)c4ccccc4)cc3)CC2)cc(OC)c1 (stereo not given)	19	2
O=c1cc(CSc2nnnn2C2CC2)nc2ccc(Br)cn12	7	8
COc1ccc(C2=NOC(CN(Cc3cccc(F)c3)C(=O)c3cccs3)C2)cc1OC (stereo not given)	6	11
NC(=O)CSc1ccc(-c2cccc([N+](=O)[O-])c2)nn1	0	0
C/C(=C\c1ccco1)CN1CCOC(CCNS(C)(=O)=O)C1 (stereo not given)	0	-7
Cc1cc(NC(=O)c2ccc(C(C)(C)C)cc2)no1	7	2
COc1ccccc1CNC(=O)C1(C)CCN1CCOc1ccc(C)cc1 (stereo not given)	1	0
CCOC(=O)c1cc(-c2cccc(NC(=O)c3cc(Cl)cnc3Cl)c2)n(-c2ccccc2OC)n1	26	16
Cc1cccc2c(N=Nc3ccccc3)c(O)[nH]c12	6	4
CCCCN(CC(=O)N1c2ccccc2-n2cccc2C1c1cccc(C)c1)C(=O)c1ccc(C(C)(C)C)cc1 (stereo not given)	17	18
COc1ccccc1C(=O)N1CCN(c2ccc(Cl)cc2)C(=O)C1C (stereo not given)	4	14
COc1cc(C)ccc1OCc1nc(C(=O)NC(C)c2ccccc2)cs1 (stereo not given)	-1	9
Cc1c(C(=O)N2CCN(C(=O)c3ccccc3F)CC2)cc(-c2ccc(Cl)cc2)n1-c1cccc(F)c1	-3	6
CC(C)O[C@H]1CN(C(=O)c2csc3nc(-c4ccccc4Cl)cn23)C[C@@H]1O	1	-3
CCOC(=O)c1csc(Nc2nc3cc4c(cc3s2)OCO4)n1	3	0
O=C(N[C@@H]1CCCCC1NC(=O)C1CCN(C(=O)C(c2ccccc2)c2ccccc2)CC1)c1ccccc1 (stereo not given in full)	-1	5
CN1CCCc2cc(C(CNC(=O)c3ccc(Br)o3)N3CCCC3)ccc21 (stereo not given)	7	3
COCCN(CCOC)c1nc(S(=O)(=O)c2ccc(C)cc2)c(Cl)s1	-6	0
C=CCN1C(=O)NC(c2ccccc2F)C2=C1CN(Cc1cccnc1)C2=O (stereo not given)	-1	11
COc1c(F)cccc1C(=O)N1CCN(c2ncccc2C)CC1	4	0
Fc1cccc(CN2CCN(Cc3cc(CN4CCCC4)cs3)CC2)c1	-1	-6
S=C(Nc1ccccc1)NC1C2CN3CCN(C2)CC1(c1ccccc1)C3 (stereo not given)	-8	-13
Cc1cc(C)cc(CC(=O)N2CCC2(C)C(=O)NS(=O)(=O)C2CC2)c1 (stereo not given)	3	1
COc1ccc(CN2CCCn3cccc3C2c2cccc(Cl)c2)c(OC)c1 (stereo not given)	-2	1
O=C1N=C(c2ccccc2)OC1=CC=Cc1ccccc1	9	7
Oc1ccc(CN2CCCn3cccc3C2c2ccc(C(F)(F)F)cc2)c(O)c1 (stereo not given)	2	15
O=C(CCc1c[nH]c2ccccc12)N1CCOc2ccc(CN3CCN(c4ccccn4)CC3)cc2C1	3	-3
CCc1nc2n(n1)C(=O)C(C(c1cccc(Br)c1)N1CCC(O)CC1)S2 (stereo not given)	-3	-8
O=C(NCCCCN1CCCC1)NC1CCCSC1 (stereo not given)	14	701
COC(=O)C1=C(C)N=c2s/c(=C\c3cc(Br)ccc3OC(C)=O)c(=O)n2C1c1cccs1 (stereo not given)	18	23
CCN(CC)c1ccc(C(=O)CN2C(=O)CON=C2c2cccc(C#N)c2)cc1	12	3
O=C(Cc1ccc(F)cc1)NCCc1csc2nc(-c3ccc(F)cc3)nn12	3	1
CCN=C1NN=C(c2ccc(OC)c(Br)c2)CS1	5	5
Cc1ccccc1C1=NOC(CN(Cc2cccc(F)c2)CC(O)Cc2ccccc2)C1 (stereo not given)	-2	3
C=C(C)N/N=C1\NC(=O)C(CC(=O)Nc2ccc(C)cc2C)S1 (stereo not given)	4	1
CCOC(=O)c1c(C)n(-c2ccc(OC)cc2)c2c1cc(OC)c1ccccc12	2	0
CCO[C@H]1COC[C@@H]1NC(=O)C1(N2CCCC2)CCCC1	0	-2
COC(=O)[C@@H]1C[C@@H](N(C)C)CN1C(=O)c1cccc2cc(C)oc12	-1	-5
Cc1csc(CNC(=O)N2CCC(C(=O)c3cc(F)ccc3F)CC2)n1	4	1
CC(C)(C)c1cc2nc(C(=O)O)cc(-c3cccc(F)c3)n2n1	-7	-3
CCOC(=O)C1(C)CCN1C(=O)c1ccc(C)c(F)c1 (stereo not given)	-4	-9
CCc1nc2ccc(C(=O)NC3CCN(Cc4ccccc4)CC3)cn2c1N(CC)CCOC	-7	-12
O=C(Nc1cccc(Oc2ccccc2)c1)c1ccc(CSc2nnc3ccccn23)cc1	39	16
Cc1ccccc1CCC1CCCN(CC(=O)NC2CC2)C1 (stereo not given)	-4	-7
CCCNC(=O)c1c(C(F)(F)F)nn(C2CCCN(C(C)C)C2)c1C (stereo not given)	1	-2
O=C(Nc1ccccc1)c1cc(-c2cccc(Br)c2)nc2ccccc12	2	3
COc1ccc(OC)c(C=NN=CC2=C(N3CCOCC3)C(=Cc3ccc([N+](=O)[O-])cc3)CC2)c1	3	2
Cc1ccc(-c2nnc(SCc3ccc(C(=O)NC4CC4)cc3)n2-c2ccccc2F)cc1	1	11
CC(C)Oc1cc(-c2ccc(S(C)(=O)=O)cc2)nc(N)n1	11	9
COc1ccc(C(=O)C=Cc2cc(OC)c(O)c(OC)c2)cc1F	64*	57*

Five compounds picked at random from those above:
SMILES	NPYLR7 ag	NPYLR7 ag max-min
CCOC(=O)c1c(N=Nc2c(O)[nH]c3ccccc23)sc(SC#N)c1-c1ccccc1	2	-3
CCOC(=O)c1c(NC(=O)c2cc3nc(-c4ccc(F)cc4)cc(C(F)(F)F)n3n2)sc2c1CCCC2	-9	-17
O=C(N[C@@H]1CCCCC1NC(=O)C1CCN(C(=O)C(c2ccccc2)c2ccccc2)CC1)c1ccccc1 (stereo not given in full)	-1	5
CCc1nc2ccc(C(=O)NCCC(C)C)cn2c1N(CC)CCOC	-5	-7
COc1ccc(OCC2CN(C(=O)c3coc(C)c3)CCO2)cc1 (stereo not given)	28	26

4 of these compounds in a different format:
mol,NPYLR7 ag,NPYLR7 ag max-min
CCc1nc2ccc(C(=O)NC3CCN(Cc4ccccc4)CC3)cn2c1N(CC)CCOC,-7,-12
O=C(Nc1cccc(Oc2ccccc2)c1)c1ccc(CSc2nnc3ccccn23)cc1,39,16
Cc1ccccc1CCC1CCCN(CC(=O)NC2CC2)C1 (stereo not given),-4,-7
CCCNC(=O)c1c(C(F)(F)F)nn(C2CCCN(C(C)C)C2)c1C (stereo not given),1,-2
